NPYLR7 ag – mosquito NPYLR7 agonism. HEK293T NPYLR7/Galpha15, GCaMP6s calcium fluorescence. activation, % at 10 µM. 0.15% of 270,000 active; in the data active = activation above about 40%;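 note: 0% = vehicle and 100% = reference agonist at the receptor; some compounds past the cut are filed as inactive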
NPYLR7 ag max-min – further read-out of NPYLR7 ag, marked with its call; activation, %; measured here: Max-Min RFU normalised activation; some inactives read as strong as hits;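 span of the calcium signal over five minutes; 0% = vehicle and 100% = native peptide agonist; compound fluorescence can raise it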
* marks the source's active call; other numbers are inactive results; & = joins results of further samples. Some of the compounds tested, so the mix of outcomes need not match the whole.

SMILES | NPYLR7 ag | NPYLR7 ag max-min
CCN(CC)C(=O)Oc1ccc2c(ccn2Cc2ccccc2-c2ccccc2)c1-c1ccc(F)c(Cl)c1 | 7 | 1
CC(Sc1nnc(N(C)C)n1C(C)C)C(=O)NC1CC1 (stereo not given) | 10 | 7
COCCN(Cc1nc2ccccc2o1)C(=O)c1ccccc1OC | 6 | 4
CC(=O)NC(CC(C)C)C(=O)N1CCN(Cc2cccc(-c3noc(CC(C)C)n3)c2)CC1 (stereo not given) | 28 | 20
COC(=O)C(CC(C)C)NC(=O)CNC(=O)c1ccc(C)c(C)c1 (stereo not given) | 1 | 2
O=C(NCCCn1ccnc1)c1nn2c(C(F)(F)F)cc(-c3cccs3)nc2c1Cl | -8 | -12
CCC(C)c1ccc(OCCOc2ccc(C=C3C(=O)NC(=S)NC3=O)cc2OC)cc1 (stereo not given) | -5 | -11
CC(=O)Nc1cccc2nc(CN3CCCC(CO)(Cc4cccc(Cl)c4)C3)ccc12 (stereo not given) | 3 | -1
CC(Sc1cnn(C)c(=O)c1Br)c1ccccc1F (stereo not given) | -1 | -2
CCCCC1CCC(C(=O)Nc2c(C)nc3ccc(C)cn3c2=O)CC1 (stereo not given) | 5 | 3
CCCCN1CCN(c2nc3c(c(=O)[nH]c(=O)n3C)n2Cc2ccccc2)CC1 | 28 | 23
Cc1cc(=O)n2[nH]c(N3C(=O)C4CCCCC4C3=O)nc2n1 (stereo not given) | -6 | -7
O=C(CCc1ccc(=O)[nH]n1)N1C[C@@H]2C3CCC(CC3)[C@@H]2C1 | 11 | 9
CC(=O)OC(C(=O)Nc1ccc(CNC(=O)NC(C)C)cc1)c1ccccc1 (stereo not given) | -7 | -12
COc1ccc(N2CCN(C(=O)Cc3csc(NC(=O)CN(CC(C)C)C(=O)c4ccc(Cl)cc4)n3)CC2)cc1 | -3 | 5
Cc1cccc(Oc2ccnc(N3CCN(CCS(=O)(=O)c4ccccc4)CC3)n2)c1 | -1 | -2
Cc1ccccc1-n1c(SCCCC(=O)N2CCN(C(=O)COCc3ccccc3)C(C)C2)nnc1-c1ccco1 (stereo not given) | 8 | 4
CC(C)Cc1cc(C(=O)N2CCN(C(=O)c3ccccc3)CC2)no1 | 3 | 0
Oc1[nH]c2ccc(Br)cc2c1N=Nc1ccc(F)cc1F | 0 | -5
CCc1nc2ccc(C(=O)NCC3CCCCC3)cn2c1N(C)Cc1nccs1 | -10 | -13
Cc1ccc(OCc2occc2C(=O)N2CCCC(N3CCCC3=O)C2)cc1 (stereo not given) | -1 | -1
CCn1cnnc1CCNC(=O)c1cnn2c1CCCC2 | -4 | -5
CNc1cc(-c2ccc(CN3CCCCC3)cn2)c2cc[nH]c2n1 | 21 | 14
CC(C)CNC(=O)C1(NCc2nnsc2Cl)CCCC1 | 0 | -1
O=C(NCc1ccncc1)c1ccc(CSc2nnc(Cc3ccccc3)n2-c2cccc(C(F)(F)F)c2)cc1 | 5 | 10
(list continues)
SMILES | NPYLR7 ag | NPYLR7 ag max-min
O=C(CC(c1ccccc1C(F)(F)F)c1c[nH]c2ccccc12)NCc1ccncc1 (stereo not given) | 9 | 15
Cc1cc(C2CCC2)nc(-c2ccc(O)cc2)n1 | -1 | -1
CCOC(=O)CCC(=O)N1CCN(c2ncccc2C(=O)NCc2cccs2)CC1 | 0 | -2
Cc1ccc(/C=C/C(=O)NC(C)CN2CCCC2=O)s1 (stereo not given) | 10 | 9
COC(=O)C1=C(C)N=c2sc(=Cc3ccc(O)c(OC)c3)c(=O)n2C1c1ccccc1 (stereo not given) | -11 | -11
Cc1ccc(-c2nc3cc(C)ccn3c2NC(=O)c2ccc(C(F)(F)F)cc2)cc1 | -5 | 0
COC(=O)c1ccc2nc(NC(=O)c3cn(C)nc3OC)sc2c1 | 26 | 20
Cc1cc(C)nc(N2CCc3ccc(OC(F)F)cc3C2)n1 | -3 | -5
Cc1cc(-c2ccccc2)cc2c3ccccc3c3ccccc3[n+]12 | -6 | -13
COc1ccc(-c2noc(-c3c(SC)nn(CC(=O)Nc4ccc(C)c(F)c4)c3N)n2)cc1OC | 0 | -11
CCCN(CC(=O)N(Cc1ccccc1)Cc1sccc1C)C(=O)c1ccc([N+](=O)[O-])cc1 | -10 | -6
CCCN(Cc1ccc(C)cc1)C(=O)c1ccccc1S(C)(=O)=O | -6 | -5
COC(=O)CC(NC(=O)C(C)OCC(C)C)c1ccc(C)cc1 (stereo not given) | 1 | -2
O=C(COC(=O)c1ccncc1)NCCc1ccc(Cl)cc1Cl | 0 | 0
C/C=C/[C@H]1OC(=O)N(C(=O)c2ccccc2)C1Cc1ccccc1 (stereo not given in full) | -6 | -9
CN(CCNC(=O)C[C@@H]1C[C@@H]2C=C[C@H]1C2)S(C)(=O)=O | -2 | -3
Cn1ccn2ncc(-c3nc(C4(c5ccc(F)cc5)CCOC4)no3)c12 (stereo not given) | -2 | -5
COc1ccc(C(NC(=O)C2CCN(CCn3cnc4c3c(=O)n(C)c(=O)n4C)CC2)c2ccccn2)cc1 (stereo not given) | -10 | -10
Cc1ccc(C(=O)Cn2nc(-c3ccccc3)c3sc(N4CCCCC4)nc3c2=O)cc1 | -3 | -4
CCCn1nccc1NC(=O)N1CCN(C)CC1C (stereo not given) | 18 | 12
Oc1c(F)cccc1CN(Cc1ccsc1)Cc1ccco1 | 1 | 17
CC1C(=O)N(c2cccc(C(F)(F)F)c2)CCN1C(=O)C1CCC1 (stereo not given) | -3 | 4
COc1cc2c(cc1OC)C1CN(C(=S)Nc3ccc(-c4cnco4)cc3)CC(=O)N1CC2 (stereo not given) | 19 | 23
CCCc1nc(N2CCCN(C(=O)Nc3ccc(Br)cc3)CC2)c2c(C)nn(-c3ccccc3)c2n1 | -1 | 5
CCN(CC)c1ncccc1CNc1nccc(C(F)(F)F)n1 | 2 | 1

Quoted from the listing for reference:
SMILES | NPYLR7 ag | NPYLR7 ag max-min
Cc1ccc(/C=C/C(=O)NC(C)CN2CCCC2=O)s1 (stereo not given) | 10 | 9
COC(=O)C1=C(C)N=c2sc(=Cc3ccc(O)c(OC)c3)c(=O)n2C1c1ccccc1 (stereo not given) | -11 | -11
Cc1ccc(-c2nc3cc(C)ccn3c2NC(=O)c2ccc(C(F)(F)F)cc2)cc1 | -5 | 0
COC(=O)c1ccc2nc(NC(=O)c3cn(C)nc3OC)sc2c1 | 26 | 20
Cc1cc(C)nc(N2CCc3ccc(OC(F)F)cc3C2)n1 | -3 | -5
Cc1cc(-c2ccccc2)cc2c3ccccc3c3ccccc3[n+]12 | -6 | -13
COc1ccc(-c2noc(-c3c(SC)nn(CC(=O)Nc4ccc(C)c(F)c4)c3N)n2)cc1OC | 0 | -11
CCCN(CC(=O)N(Cc1ccccc1)Cc1sccc1C)C(=O)c1ccc([N+](=O)[O-])cc1 | -10 | -6
CCCN(Cc1ccc(C)cc1)C(=O)c1ccccc1S(C)(=O)=O | -6 | -5
COC(=O)CC(NC(=O)C(C)OCC(C)C)c1ccc(C)cc1 (stereo not given) | 1 | -2
O=C(COC(=O)c1ccncc1)NCCc1ccc(Cl)cc1Cl | 0 | 0
C/C=C/[C@H]1OC(=O)N(C(=O)c2ccccc2)C1Cc1ccccc1 (stereo not given in full) | -6 | -9
CN(CCNC(=O)C[C@@H]1C[C@@H]2C=C[C@H]1C2)S(C)(=O)=O | -2 | -3
Cn1ccn2ncc(-c3nc(C4(c5ccc(F)cc5)CCOC4)no3)c12 (stereo not given) | -2 | -5
COc1ccc(C(NC(=O)C2CCN(CCn3cnc4c3c(=O)n(C)c(=O)n4C)CC2)c2ccccn2)cc1 (stereo not given) | -10 | -10

Following part.
SMILES | NPYLR7 ag | NPYLR7 ag max-min
COc1ccc(C2c3c(n[nH]c3-c3ccccc3)OC(=N)C2C#N)c(OC)c1 (stereo not given) | -5 | -12
C#Cc1cccc(N(CC(=O)Nc2cccc(CC)c2)CC(=O)N2CCOCC2)c1 | 10 | 7
O=C(OCC(=O)N1CCCC1=O)c1ncc(Cl)c(Cl)c1Cl | -7 | -8
Cc1ccccc1CC(C)NC(=O)CN1CCCN(C(N)=O)CC1 (stereo not given) | 1 | 0
O=C1NCC2(CCN(CC3(O)CCCN(CCc4ccccc4)C3=O)CC2)O1 (stereo not given) | 27 | 13
O=C(NCCC(=O)OCC(=O)c1ccc(Cl)s1)NC12CC3CC(CC(C3)C1)C2 | 2 | 5
Cc1ccc(NC(=O)c2csc(CSc3nnc(-c4cccnc4)n3-c3ccccc3F)n2)cc1C | -4 | 15
Cc1ccccc1N1CCN(C2CCCN(C(=O)C3CC3)C2)CC1 (stereo not given) | 2 | 7
CNS(=O)(=O)c1ccc(Cl)c(Cl)c1 | -2 | -3
CCc1nc2ccc(C(=O)N3CCCCC3)cn2c1N(C)C(=O)Nc1ccccc1OC | -4 | -8
Cc1cc(C)n2c(NC(C)(C)C)c(-c3ccc(F)cc3)nc2c1 | -15 | 1
CC(C)C(NS(=O)(=O)c1cccs1)C(=O)Nc1ccc(N2CCCC2)cc1 (stereo not given) | 4 | 0
Cc1cc(Nc2ccc3c(n2)C(=O)N([C@H](C)C(=O)NCCc2ccccc2)C3)n(C)n1 | 8 | 2
O=C1NC(c2cccc(F)c2)=NOC1Cc1ccccc1 (stereo not given) | 9 | 5
CC(C)CCc1nc(N2CCN(C(=O)c3ccc([N+](=O)[O-])cc3)CC2)c2cnn(-c3cccc(Cl)c3)c2n1 | 34 | 27
COc1cccc(C(=O)Nc2ccc(-c3c(-c4cccc(C)c4)nn(-c4ccc(F)cc4)c3OC(C)=O)cc2)c1 | -4 | 2
O=C(c1cn(CC2COc3ccccc3O2)nn1)N1CCN(C2CCCC2)C(=O)C1 (stereo not given) | 22 | 11
CCc1nc2n(n1)C(=O)C(C(c1ccc(OC)cc1)N1CCCC(C)C1)S2 (stereo not given) | 2 | 16
Cc1ccccc1C1CCCN1C(=O)c1ccc(OCC(N)=O)cc1 (stereo not given) | -1 | -9
O=C(CN1CCc2[nH]c3ccccc3c2C1)N1CCOCC1 | -8 | -9
COc1ccccc1NC(=O)C1=C(C)NC(=O)NC1c1ccc(O)cc1 (stereo not given) | -4 | -10
Cc1cnc(C(=O)Nc2ncc(Cc3ccc(C(F)(F)F)cc3)s2)cn1 | 0 | -8
CCCN1CCCc2cc(CCNC(=O)C(=O)Nc3ccc(OC)cc3OC)ccc21 | 8 | 4
COc1ccc(NC(=O)C2CCN(C(=O)[C@H](C)NC(=O)/C=C/c3ccc(OC(F)(F)F)cc3)CC2)cc1 | 7 | 8
NS(=O)(=O)CCNC(=O)C(=O)N1CC2(CCC2)c2c(F)cccc21 | -4 | 28
Continued.
SMILES | NPYLR7 ag | NPYLR7 ag max-min
CN1CCC(Cc2noc(CCC(=O)c3ccccc3)n2)CC1 | 3 | 3
COc1ccc(-c2csc(-n3[nH]c(C)c(N=Nc4ccc(N=Nc5ccccc5)cc4)c3=O)n2)cc1 | -6 | -10
COc1ccc(-c2cc(C(=O)N3CCN(C/C=C/c4ccccc4)CC3)c(C)n2-c2ccc(F)cc2F)cc1 | 19 | 29
COC(=O)C1=C(NC(=O)COc2ccccc2)CCS1 | -1 | 0
CCCNC(=O)c1cc(C2CCCCN2C(=O)OCC(C)C)on1 (stereo not given) | -1 | -3
CCn1cc(C(=O)Nc2nc(C)cs2)c2nn(-c3ccccc3)c(=O)c-2c1 | 2 | 2
COCCN(CC(=O)N(Cc1ccc2c(c1)OCO2)Cc1ccco1)C(=O)/C=C/c1ccc([N+](=O)[O-])cc1 | 16 | 18
CC(c1cccs1)N(C)C(=O)c1cn(Cc2ccccc2C(F)(F)F)nn1 (stereo not given) | 7&5 | 7&2
CCN(C(=O)CN1CCNC(=O)C1)c1cccc2ccccc12 | 0 | 0
COc1cccc(-c2c[nH]c(=S)n2Nc2ccccc2Cl)c1 | 7 | 19
Cn1c(SCCc2ccccc2)nc2ccsc2c1=O | 2 | 1
Cc1ccc(Cl)c(Oc2cc(N3CCN(CC(=O)N4CCCC4)CC3)ncn2)c1 | 2 | 3
CCOC(=O)c1cnc2ccc(C(=O)OC)cc2c1Nc1cccc(OC)c1 | -5 | -10
CCC(C(=O)N1CCC2(CC1)C(=O)N(CC(=O)NCCc1ccccn1)CN2c1ccccc1)c1ccccc1 (stereo not given) | 19 | 21
N#CC(=Cc1ccc([N+](=O)[O-])o1)c1nc(C2CC2)cs1 | -6 | -12
CSc1ccc(C(=O)C2CCCN(C(=O)/C=C/c3ccncc3)C2)cc1 (stereo not given) | 8 | -3
CC1CCCC1NC(=O)NC1CCN(CC(F)F)CC1 (stereo not given) | 2 | 1
NC(=O)Cn1nnc(-c2ccc(Cl)cc2)n1 | 4 | 4
Cc1ccccc1C(=O)N1CCN(c2ccc3nnc(-c4ccco4)n3n2)CC1 | 0 | -3
Cn1c(=O)c2c(nc(N3CCCC3)n2C)n(C)c1=O | 5 | 5
CCc1nn2c(nnc3c(=O)n(CCc4cnc[nH]4)ccc32)c1-c1ccc(Cl)cc1 | 0 | -2
CCOC(=O)c1c(N)oc2c(Br)c3c(C(=O)OCC)c(N)oc3c(Cl)c12 | -2 | -3
CCCCN(CCCC)CC1OCc2ccccc2CO1 | -8 | -10
CCCn1c(=O)n(C)c(=O)c2c(SCOC)nc(C(C)C)nc21 | 3 | 3
COc1ccccc1-c1cc(C(=O)Nc2ccc(F)cc2)n2nc(C(C)(C)C)cc2n1 | -9 | -6
(next part)
SMILES | NPYLR7 ag | NPYLR7 ag max-min
CSCC(=O)N(C)CC1CCCN(CCc2cccc(C(F)(F)F)c2)C1 (stereo not given) | -1 | -4
COc1cc(CN2CCC(C(=O)NC(c3ccc(F)cc3)c3ncccc3C)CC2)cc(OC)c1 (stereo not given) | 7 | 9
CCOC(=O)C1C(=O)C=C(c2cccs2)CC1c1ccc(C)cc1 (stereo not given) | 13 | 16
Cc1noc(C)c1CN(C)C(=O)c1c(O)cccc1O | -6 | -7
Cc1ncc([N+](=O)[O-])n1CCNC(=O)Nc1ccc(Cl)cc1 | 8 | 9
Cc1cc(C)n(C)c(=O)c1C(=O)N1CCc2c(nc[nH]c2=O)C1 | 2 | 3
CN(Cc1ccoc1)C(=O)c1cn(CC2CCCCC2)nn1 | 18 | 15
COc1ccc(OC)c(NC(=O)CN2C(=O)c3ccccc3C2=O)c1 | -4 | -11
Cc1c(Cl)ccc2sc(N3CCN(C(=O)C4=COCCO4)CC3)nc12 | -4 | -8

Compound activity from PubChem.
